Screening results deposited in PubChem by National Center for Advancing Translational Sciences (NCATS).
CtBP-E1A blk – blocks the CtBP interaction with E1A. AID 651724. hit rate 0.49% among 340,000. AlphaScreen GST-E1A/His-CtBP binding, 1536-well; active compounds read low; control for the full effect not named in the record. activity change, % (concentration not given with the values); in the data active means activity change below about -65%; inconclusive means about -30% to -65%; inactive means above about -30%; further: on the % scale 0 is the no-effect control and ±100 the full control effect
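Homogeneous bead-based format: GST-tagged E1A captured on glutathione donor beads, His-tagged CtBP on nickel acceptor beads; compounds precede bead addition by 2 h at 37 °C.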
Menin-MLL FL inh – inhibitors of human menin-MLL interaction, wild-type MLL peptide; Fluorescence polarization, fluorescein-MLL peptide displacement from menin; FP activity change, % at 61.4 µM; 290,000 tested, under 10 active; inconclusive = falling polarisation curve, or a change in total fluorescence; inactive = total fluorescence flat and polarisation flat or rising; no compound was filed as active; the % refers to the polarisation; negative = inhibition;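 further: % of control where 0% means no effect; inhibitors lower the polarisation; unlabelled MLL peptide was the positive control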
ClpP mod – qHTS Assay for Activators of ClpP; ATP-dependent Clp protease proteolytic subunit (Bacillus subtilis (strain 168)), P80244; purified B. subtilis ClpP, FRET peptide cleavage, 20 min; Potency, µM (highest dose often 57.5 µM), without a hit: at the highest dose activity change, negative = active; hit rate 1.9% among 340,000; active = well fitted falling curve with a large enough effect; inconclusive = small, poorly fitted or top-dose-only effect; inactive = no such curve, though single readings can be large or run the other way; further: potency means the concentration at half of the fitted maximal effect; the source files actives as falling curves though it sought activators and does not explain the sign; nearly all actives have a fitted effect of over 65% in size; many hits overshoot -100%
Target sequence (P80244 whole entry, looked up): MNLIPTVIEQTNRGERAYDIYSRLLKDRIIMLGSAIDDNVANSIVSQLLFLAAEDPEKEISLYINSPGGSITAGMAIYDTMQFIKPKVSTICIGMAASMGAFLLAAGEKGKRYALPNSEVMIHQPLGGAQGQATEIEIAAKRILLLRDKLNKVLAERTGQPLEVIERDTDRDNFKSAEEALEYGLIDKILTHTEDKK
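ClpP 10 microg/mL final, pH 8 Tris/KCl buffer with BSA, glycerol, Tween-20; compound pinned in; FRET-FV substrate; RT 20 min; Ex320/Em430; ΔFRET vs ADEP 5.8 microM, DMSO, no enzyme.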
gsp antagonist – antagonists of gsp mutant (McCune-Albright syndrome). gsp-mutant cells, cAMP HTRF, 30 min; control for the full effect not named in the record. Potency, µM (titrated, usually from 76.9 µM), for the others: top-dose activity change, negative = inhibition, actives largely listed as inhibitors. hit rate 0.4% among 340,000. AID 624288; active = falling curve of any shape with a large fitted effect; inconclusive = falling curve, mostly with a smaller effect; inactive = flat or rising curve; cell line not stated here;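 further: intracellular cAMP measured with PDE inhibitor Ro 20-1724 present during compound exposure; potency means the concentration at half of the fitted maximal effect; on the % scale 0 is the no-effect control and ±100 the full control effect; nearly all actives have a fitted effect of over 65% in size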
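Measurement of cellular cAMP by homogeneous time-resolved fluorescence following a 30 min compound exposure at 37C. The PDE inhibitor […] was present throughout; the assay buffer was DPBS with 0.05% BSA and 0.005% Tween 20.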
gsp ag – agonists of gsp mutant (McCune-Albright syndrome); gsp mutant cells, cAMP HTRF, 30 min; control for the full effect not named in the record; Potency, µM (top dose mostly 76.9 µM), for the others: at the top dose activation (cAMP increase), most hits filed as activators; hit rate 0.13% among 340,000; active = well fitted activation curve with a large enough effect; inconclusive = small, poorly fitted or top-dose-only effect, or another doubt; inactive = no such curve, though single readings can be large or run the other way; cell line not stated here;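 further: phosphodiesterase inhibitor Ro 20-1724 added with compounds to block cAMP breakdown; potency means the concentration at half of the fitted maximal effect; nearly all actives have a fitted effect of over 60% in size; about a fifth of the inactives were tested at one dose only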
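Cells in DMEM/10% FBS with G418 were pretreated with compounds in DMSO plus […] (300 uM stock) for 30 min at 37C. cAMP was measured by HTRF (cAMP-d2 plus anti-cAMP antibody-K) after 30 min at room temperature.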
Sfp inh – Sfp phosphopantetheinyl transferase inhibition. Potency, µM, without a hit: max response, negative = inhibition, most hits filed as inhibitors. Q9F4F7. hit rate 3.5% among 310,000. Biochemical Sfp PPTase activity, qHTS. AID 1490; active means well fitted inhibition curve with a large enough effect; inconclusive means small, poorly fitted or top-dose-only effect, or another doubt; inactive means no such curve, though single readings can be large or run the other way;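 further: the enzyme is Sfp with the accession as filed and its product quenches rhodamine fluorescence; potency means the concentration at half of the fitted maximal effect; 0% = enzyme reaction without inhibitor and -100% = no enzyme wells; top concentration of the series not given in the record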
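Fluorescence-quenching assay with 15 nM Sfp, 5 uM rhodamine-CoA and 12.5 uM BHQ-2-labelled ybbR peptide in pH 7.6 Hepes/MgCl2 buffer. Enzyme was pre-incubated with compound for 15 min at room temperature. Rate was taken from the 30-min fluorescence change (525/598 nm).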
TRPV1 potentiator – human TRPV1 potentiation. TRPV1-expressing cells, Fluo-8 calcium influx, capsaicin EC20 potentiation; host cell line not named in the record; control for the full effect not named in the record. potentiation, % at 8.33 µM. hit rate 0.02% among 320,000. AID 540277; active means potentiation above 80%; inconclusive means 30% to 80%; inactive means below 30%; further: 0% is about no effect
Target sequence (Q8NER1 whole entry, looked up): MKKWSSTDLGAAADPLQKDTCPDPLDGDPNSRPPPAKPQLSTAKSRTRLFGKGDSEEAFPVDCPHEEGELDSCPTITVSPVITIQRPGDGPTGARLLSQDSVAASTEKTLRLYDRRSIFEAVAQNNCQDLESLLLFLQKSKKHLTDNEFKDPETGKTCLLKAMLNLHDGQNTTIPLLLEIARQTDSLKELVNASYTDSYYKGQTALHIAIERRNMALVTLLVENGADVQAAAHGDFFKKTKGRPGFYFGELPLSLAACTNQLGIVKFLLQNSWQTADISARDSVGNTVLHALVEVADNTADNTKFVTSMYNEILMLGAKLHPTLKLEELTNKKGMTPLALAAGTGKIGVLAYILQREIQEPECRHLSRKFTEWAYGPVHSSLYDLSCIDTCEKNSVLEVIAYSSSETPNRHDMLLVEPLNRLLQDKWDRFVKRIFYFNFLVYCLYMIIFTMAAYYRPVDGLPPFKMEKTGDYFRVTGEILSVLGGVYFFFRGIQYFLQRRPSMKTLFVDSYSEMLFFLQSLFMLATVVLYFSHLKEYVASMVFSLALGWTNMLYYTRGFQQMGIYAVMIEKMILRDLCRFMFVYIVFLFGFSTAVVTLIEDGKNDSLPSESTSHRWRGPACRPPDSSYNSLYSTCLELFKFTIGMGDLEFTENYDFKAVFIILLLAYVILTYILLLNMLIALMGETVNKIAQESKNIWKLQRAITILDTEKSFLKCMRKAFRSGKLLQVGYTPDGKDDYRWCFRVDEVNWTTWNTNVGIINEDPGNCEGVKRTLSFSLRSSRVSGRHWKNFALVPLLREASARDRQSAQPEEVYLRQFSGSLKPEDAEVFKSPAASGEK
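Fluo-8 calcium influx in TRPV1-expressing cells, kinetic read (ex 480/em 520 nm). Compound added and read 3 min for agonist activity, followed by capsaicin at EC20 final and 2 min further read for enhancement.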
The depositor's hits bear a star; [ ] = remark or other dose.

How did O=C1CCc2cc(S(=O)(=O)NC(C(=O)N3CCN(c4ccccn4)CC3)c3ccccc3)ccc2N1 (configuration not stated) do in these assays?
CtBP-E1A blk: -0.1; Menin-MLL FL inh: 0.5; ClpP mod: -13.9%; gsp antagonist: -23.9%; gsp ag: -27.6%; Sfp inh: 11.5%; TRPV1 potentiator: 6.6

What do the screens show for `S=C1NC(c2cccs2)=CC(c2ccc(Br)cc2)N1` (configuration not stated)?
CtBP-E1A blk: 19.2; Menin-MLL FL inh: 3.0; ClpP mod: -25.2%; gsp antagonist: inconclusive; gsp ag: 3.9%; Sfp inh: -20.9%; TRPV1 potentiator: 0.5

How did Cc1cc(=O)n2[nH]c(C)cc2n1 do in these assays?
Menin-MLL FL inh: 1.6; gsp antagonist: -4.4%; gsp ag: -4.7%[15.4 µM]; Sfp inh: 18.3%; TRPV1 potentiator: 1.7

What do the screens show for `O=C(/C=C/c1ccco1)N(Cc1ccccc1)C1CCS(=O)(=O)C1` (configuration not stated)?
CtBP-E1A blk: -4.1; Menin-MLL FL inh: 12.2; gsp antagonist: -2.9%; gsp ag: -4.5%[15.4 µM]; Sfp inh: 25.1µM*; TRPV1 potentiator: -0.2

Results for CCCc1c(C)nc2ccccc2c1SCCC#N ?
Menin-MLL FL inh: 12.2; ClpP mod: 3.3%; gsp antagonist: inconclusive; gsp ag: 33.7%; Sfp inh: -16.9%; TRPV1 potentiator: 6.8

What do the screens show for `COc1ccc(C2CC(c3cccc(F)c3)=NN2c2ccc(S(N)(=O)=O)cc2)cc1` (configuration not stated)?
CtBP-E1A blk: 46.9; ClpP mod: 4.4%; gsp antagonist: -5.4%

What do the screens show for `O=[n+]1c2c(n([O-])c3c1CCC3)CCCC2`?
CtBP-E1A blk: -5.7; Menin-MLL FL inh: 3.4; ClpP mod: -1.2%; gsp antagonist: 6.3%; gsp ag: 8.4%; Sfp inh: 9.1%; TRPV1 potentiator: -6.1

How did COc1cc(NC(=O)COc2cc(C)cc3oc(=O)c(C)c(C)c23)cc(OC)c1OC do in these assays?
CtBP-E1A blk: 0.1; Menin-MLL FL inh: 0.1; ClpP mod: -18.7%; gsp antagonist: -2.7%; gsp ag: 13.8%; Sfp inh: 10.6%; TRPV1 potentiator: -11.4

Results for Cc1ccc(NC(=O)c2ccc(NCCCN3CCC(C)CC3)c([N+](=O)[O-])c2)c(C)c1 ?
Menin-MLL FL inh: 2.4; ClpP mod: -1.1%; gsp antagonist: 1.4%; gsp ag: -4.7%; Sfp inh: -9.2%; TRPV1 potentiator: 24.3

What do the screens show for `N#C/C(=N\Nc1c(Cl)cccc1Cl)C(=O)NN`?
CtBP-E1A blk: 0.0; Menin-MLL FL inh: 4.5; ClpP mod: 15.8µM*; gsp antagonist: 0.4%; gsp ag: -20.7%; Sfp inh: 4.3%; TRPV1 potentiator: 10.2

How did CCOC(=O)c1c(-c2ccccc2)oc2ccc(O)c(CN3CCOCC3)c12 do in these assays?
CtBP-E1A blk: -0.5; Menin-MLL FL inh: 2.5; ClpP mod: -9.9%; gsp antagonist: -2.4%; gsp ag: 16.1%; Sfp inh: -7.5%; TRPV1 potentiator: 7.2

How did Nc1nc(SCc2nc3scc(-c4ccccc4)c3c(=O)[nH]2)n[nH]1 do in these assays?
CtBP-E1A blk: -5.5; Menin-MLL FL inh: 14.4; ClpP mod: -0.9%; gsp antagonist: -8.8%; gsp ag: 20.5%; Sfp inh: inconclusive; TRPV1 potentiator: 18.9

Results for O=C(COC(=O)c1cc(S(=O)(=O)N2CCOCC2)ccc1F)Nc1ccc(Cl)cn1 ?
CtBP-E1A blk: 17.0; ClpP mod: 0.9%; gsp antagonist: -21.9%; gsp ag: inconclusive; TRPV1 potentiator: -9.4

Results for O=C(CSc1nnc(CNc2ccc(F)cc2)o1)N1CCCc2ccccc21 ?
CtBP-E1A blk: -4.4; Menin-MLL FL inh: 1.2; ClpP mod: -3.3%; gsp antagonist: -23.6%; gsp ag: -42.4%[inhibitor]; Sfp inh: -9.9%; TRPV1 potentiator: 2.6

What do the screens show for `Cc1ccc(CNc2nc(N)c([N+](=O)[O-])c(Nc3cccc(F)c3)n2)cc1`?
CtBP-E1A blk: 1.4; Menin-MLL FL inh: 4.4; ClpP mod: 0.6%; gsp antagonist: 10.4%; gsp ag: 20.0%; Sfp inh: 5.6%; TRPV1 potentiator: 3.4

Results for Cc1ccccc1NC(=O)c1cc(-c2ccco2)nc2ccccc12 ?
CtBP-E1A blk: -16.1; gsp antagonist: -12.1%; gsp ag: -11.9%[15.4 µM]

Results for Cc1cc(C(=O)NNC(=S)NCc2ccco2)nn1C ?
Menin-MLL FL inh: -0.3; ClpP mod: 0.1%; gsp antagonist: 4.4%; gsp ag: 8.6%; Sfp inh: 8.8%; TRPV1 potentiator: 0.1

What do the screens show for `Cc1cc(C)c(S(=O)(=O)Nc2ccnc(-c3cccnc3)n2)c(C)c1`?
CtBP-E1A blk: 2.3; Menin-MLL FL inh: -4.3; gsp antagonist: inconclusive; gsp ag: -20.5%; Sfp inh: -14.0%; TRPV1 potentiator: 3.9

Results for COC(=O)CCCC(=O)N1CCC(n2nccc2NC(=O)CCOc2ccccc2)CC1 ?
CtBP-E1A blk: 8.9; Menin-MLL FL inh: 4.3; ClpP mod: -0.8%; gsp antagonist: 12.8%; gsp ag: -33.3%[inhibitor]; Sfp inh: 14.9%; TRPV1 potentiator: 4.5

What do the screens show for `O=C(COC(=O)c1cc[n+]([O-])cc1)Nc1ccc(SC(F)F)cc1`?
CtBP-E1A blk: -10.8; Menin-MLL FL inh: -0.4; gsp antagonist: -1.4%; gsp ag: -15.1%[15.4 µM]; Sfp inh: 1.3%; TRPV1 potentiator: -4.3

Results for O=C(Nc1ccccc1)c1cc([N+](=O)[O-])ccc1NCc1cccnc1 ?
Menin-MLL FL inh: 2.8; ClpP mod: -3.3%; gsp antagonist: -13.9%; gsp ag: 10.0%; Sfp inh: inconclusive; TRPV1 potentiator: 6.3

Results for C#CCN(C[C@@H]1[C@@H](OC(=O)NCc2ccco2)[C@@H](OC(=O)NCc2ccco2)CN(C(=O)OC(C)C)N1C(=O)OC(C)C)S(=O)(=O)c1ccc(C)cc1 ?
CtBP-E1A blk: 2.9; ClpP mod: 1.8%; gsp ag: -4.1%

How did O=C(COC(=O)CCC1CCCC1)Nc1ccc(F)cc1 do in these assays?
CtBP-E1A blk: 14.1; ClpP mod: -0.5%; gsp antagonist: -2.1%; gsp ag: 10.3%; TRPV1 potentiator: -17.5

Results for CN(C)c1cccc2c(/C=N/O)ccc(N(C)C)c12 ?
CtBP-E1A blk: 8.3; Menin-MLL FL inh: -2.0; gsp antagonist: 10.2%; gsp ag: -4.2%; Sfp inh: 19.6%; TRPV1 potentiator: 10.5

Results for CC(CCc1ccccc1)NC(=O)COC(=O)c1cccnc1Cl (configuration not stated) ?
CtBP-E1A blk: -3.2; ClpP mod: -0.2%; gsp antagonist: 8.1%; gsp ag: inconclusive

How did CCCN(CC(=O)Nc1ccccc1C)C(=O)COc1c(Cl)cccc1Cl do in these assays?
CtBP-E1A blk: 18.9; ClpP mod: 1.3%; gsp antagonist: 0.6%; gsp ag: -4.4%; TRPV1 potentiator: -19.9

What do the screens show for `Cc1cc(C(=O)NC(C)c2ccncc2)cs1` (configuration not stated)?
CtBP-E1A blk: 1.3; Menin-MLL FL inh: 1.2; ClpP mod: -2.7%; gsp antagonist: 2.5%; gsp ag: -33.4%[inhibitor]; Sfp inh: 13.1%; TRPV1 potentiator: 15.4

Results for CC1=C(C(=O)N(C)C)CC(CC(=O)NCC2CCCCC2)C(=O)N1Cc1ccccc1 (configuration not stated) ?
CtBP-E1A blk: 11.6; ClpP mod: 0.9%; gsp ag: inconclusive

Results for O=C(NCCC1CCCCN1S(=O)(=O)c1ccc(F)cc1)C(=O)NCc1ccccn1 (configuration not stated) ?
CtBP-E1A blk: 2.4; ClpP mod: 0.9%; gsp antagonist: -15.9%; gsp ag: 0.4%[15.4 µM]; TRPV1 potentiator: 0.5

What do the screens show for `CCc1nnc(NC(=O)CC(=O)Nc2ccccc2C(=O)O)s1`?
CtBP-E1A blk: 5.0; Menin-MLL FL inh: 2.8; ClpP mod: -28.1%; gsp antagonist: -17.5%; gsp ag: 32.3%; Sfp inh: -3.7%; TRPV1 potentiator: 9.1

How did O=C(Cc1ccccc1[N+](=O)[O-])NNC(=O)c1ccncc1 do in these assays?
CtBP-E1A blk: -16.1; ClpP mod: -2.7%; gsp antagonist: 5.3%; gsp ag: -75.4%[inhibitor]; TRPV1 potentiator: -3.8

How did Cc1ncc(C(O)c2ccccc2)n1Cc1ccccc1 (configuration not stated) do in these assays?
CtBP-E1A blk: -7.1; ClpP mod: 0.2%; gsp ag: 6.6%

What do the screens show for `CC(=O)c1c[nH]c(C(=O)NC2CCCCCC2)c1`?
CtBP-E1A blk: 1.3; ClpP mod: -0.5%; gsp antagonist: 19.9%; gsp ag: 27.2%; Sfp inh: 15.9%; TRPV1 potentiator: -3.0

Results for CSCCC(NC(=O)c1ccccc1)C(=O)OCC(=O)N(C)CCC#N (configuration not stated) ?
CtBP-E1A blk: 0.0; Menin-MLL FL inh: 0.9; ClpP mod: -1.7%; gsp antagonist: -10.9%; gsp ag: -3.7%[15.4 µM]; Sfp inh: 9.2%; TRPV1 potentiator: 5.2

How did Cc1ccc(CC(NC(=O)C2CCCCC2)C(=O)O)cc1 (configuration not stated) do in these assays?
CtBP-E1A blk: 5.5; ClpP mod: -0.2%; gsp antagonist: 6.7%

Results for C=C(C)c1cccc(C(C)(C)NC(=O)N2CCC(C(N)=O)CC2)c1 ?
CtBP-E1A blk: 21.8; Menin-MLL FL inh: 1.3; gsp antagonist: 11.0%; gsp ag: 4.3%[15.4 µM]; Sfp inh: 21.1%; TRPV1 potentiator: -0.9

How did CN(Cc1nccn1C)C(=O)c1cc(COc2cccc(C(F)(F)F)c2)on1 do in these assays?
CtBP-E1A blk: -3.4; ClpP mod: 1.1%; gsp antagonist: 5.0%; gsp ag: 1.8%; Sfp inh: 0.4%; TRPV1 potentiator: 11.9

How did Cc1nonc1OCCCNc1ccc([N+](=O)[O-])cc1Cl do in these assays?
CtBP-E1A blk: -5.6; Menin-MLL FL inh: -0.1; gsp ag: -4.6%[15.4 µM]; Sfp inh: 6.9%; TRPV1 potentiator: 18.6
